Sa helicase inh: S. aureus DNA helicase inhibition. purified S. aureus helicase, fluorescence unwinding assay; about half of the hits fall short of the stated cut. 0.05% of 120,000 active. inhibition, %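 (tested at about 80 µM)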;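 active = both duplicates at 50% or more, or one of them with a favoured structure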;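 also: 0% = mean of negative control wells and 100% = mean of positive control wells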
MgrA-DNA mod: alters Staphylococcus aureus MgrA binding to DNA; fluorescence polarization; inhibition, %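 (about 10 µg/mL by stock and volumes)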; 0.13% of 84,000 active; AID 602314;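 active = above 50% in either of two replicates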;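 also: 0% = protein plus DNA without compound and 100% = DNA alone without protein; higher means less MgrA bound to DNA so lower polarization; one replicate is shown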
* = called active by the depositor; · = no result given. Some of the compounds tested; the hit share may differ from the screen's.

Sa helicase inh	MgrA-DNA mod	SMILES
5	16	Cc1ccc(C(=O)C2=C(O)C(=O)N(CCc3ccccc3)C2c2ccncc2)o1 (stereo unspecified)
8	-1.9	CSC(=NCc1ccccc1)Nc1cc(-c2ccccc2)[nH]n1
4	-0.2	CCSc1nnc2c3ccccc3n(CC)c2n1
10	·	N#CC1COc2ccccc2O1 (stereo unspecified)
·	-2.0	N#Cc1ncc(C(F)(F)F)cc1SCc1ccc(Cl)cc1
8	-0.9	CCNc1nc(Cl)nc(N(C)C#N)n1
13	3.3	CCn1c(C(=O)O)c(CC(=O)Nc2ccccc2F)c2ccccc21
-18	7.7	O=C(CSc1ccccn1)NCCOc1ccccc1
4	-0.8	CCC(=O)N1c2ncnn2C(c2ccccc2OC)CC1c1ccccc1 (stereo unspecified)
·	1.4	CC(C)(C)c1csc(-c2ccc(C=N/C(C#N)=C(\N)C#N)cc2)n1
-15	·	CCn1cnc2c1c(=O)n(Cc1csc(-c3ccccc3)n1)c(=O)n2Cc1ccccc1
·	-0.2	Cc1cc(NC(=O)CCN2C(=O)/C(=C/c3ccc(F)cc3)SC2=S)no1
13	·	C/C(=N\Nc1ccccc1Cl)C(c1ccccc1)N1CCOCC1 (stereo unspecified)
·	-0.4	Cc1cc(=O)oc2cc(Oc3nnc(-c4ccccc4)c4ccccc34)ccc12
0	·	O=c1[nH]c(C23CC4CC(CC(C4)C2)C3)cs1
13	0.2	Cn1c2ccccc2c2nnc(SCCCC(=O)c3ccc4c(c3)OCCO4)nc21
-1	0.0	Cc1ccc2c(c1)nnn2C1CCN(CC(=O)N2c3ccccc3CC2C)CC1 (stereo unspecified)
·	1.1	O=C(c1nn2c(C(F)(F)F)cc(-c3cccs3)nc2c1Br)N1CCOCC1
·	0.8	c1ccc(-c2ccc(-c3csnn3)cc2)cc1
1	-1.2	Cc1ccc(NC(=O)c2oc3ccc(S(=O)(=O)N(C)C4CCCCC4)cc3c2C)cc1C
-7	·	CCCCn1cnc2c1c(=O)n(Cc1nc3ccccc3s1)c(=O)n2CCC
·	2.3	Cc1ccc(C(=O)NCC(=O)O)cc1
6	7.6	COC(=O)CSc1nc2nc3c(cn2n1)C(=O)CC(c1ccco1)C3 (stereo unspecified)
-14	·	Cc1nn(-c2ccccc2)c(OC(=O)C(C)C)c1S(=O)(=O)c1ccccc1
23	2.5	N#CCSc1nc2ccc(N3CCOCC3)cc2c(=O)n1CCc1ccccc1
15	·	Cc1nc2ccccc2c(=O)n1-c1cccc(NC(=O)C(C)C)c1
26	·	Cc1[nH]c2ccccc2c1Sc1ccccc1N
-3	·	COc1ccc(C)cc1NC(=O)c1ccccc1OC(F)F
0	·	O=C(NCCCn1ccnc1)c1ccc(Cl)cc1
-1	-1.2	Fc1cccc(F)c1N=Cc1cccnc1

Sorted by formula weight (lowest first): part of the list above.
Sa helicase inh	MgrA-DNA mod	SMILES
0	·	O=c1[nH]c(C23CC4CC(CC(C4)C2)C3)cs1
8	-1.9	CSC(=NCc1ccccc1)Nc1cc(-c2ccccc2)[nH]n1
·	-0.4	Cc1cc(=O)oc2cc(Oc3nnc(-c4ccccc4)c4ccccc34)ccc12
·	-0.2	Cc1cc(NC(=O)CCN2C(=O)/C(=C/c3ccc(F)cc3)SC2=S)no1

Continued.
Sa helicase inh	MgrA-DNA mod	SMILES
·	2.9	CCCCc1ccc(NC(=S)NNC(=O)CSCc2cccc3ccccc23)cc1
-15	·	Cc1noc2[nH]cnc(=S)c12
2	1.2	N#Cc1ccccc1NC(=O)CC1Nc2ccccc2NC1=O (stereo unspecified)
7	·	O=C(CN1CCN(c2ccccn2)CC1)N(Cc1ccccc1)Cc1ccccc1
·	-1.4	O=[N+]([O-])c1cccnc1Oc1ccccc1F
8	·	COc1ccc(CCN2C(=O)CCC2(C)C(=O)NCc2cccnc2)cc1OC (stereo unspecified)
·	4.5	CCOC(=O)C1CCN(c2cc(C(F)(F)F)nc3ccccc23)CC1
-12	3.0	Nc1nc(-c2cccnc2)nn1C(=O)CCc1ccccc1
·	-2.2	COC(=O)Cc1csc2ccc(C)cc12
-1	1.2	O=C1CCC(=O)N1CCSC(=S)N1CCCC1
3	-0.6	COc1ccc(OC)c(C(=O)CSc2nc3cccnc3n2C)c1
-12	·	CCOC(=O)C1CCCN(C(=O)CCCN2C(=O)COc3ccc(C)cc32)C1 (stereo unspecified)
·	-4.5	CCOC(=O)c1ccc(Nc2nnc(-c3cc4ccc(N(CC)CC)cc4oc3=O)s2)cc1
-14	0.8	O=C(Nc1coc2ccccc12)c1ccc(C(F)(F)F)cc1
-32	-0.6	N#Cc1c(NC(=O)CC2CCCC2)sc2c1CCC2
-5	·	O=C1C2C3C=CC(C3)C2C(=O)N1c1cccc(O)c1 (stereo unspecified)
-4	·	Cc1ccc2nc(CSc3nnc(COc4ccccc4Cl)o3)cn2c1
-1	6.0	Cc1nc2sccn2c1-c1csc(Nc2cccc(Cl)c2C)n1
5	-0.6	CCN1C(=O)N/C(=C/c2cn(Cc3ccccc3)c3ccccc23)C1=O
10	0.4	CS(=O)(=O)Nc1ccc2c(c1)CCC2
12	·	c1ccc2c(NN=C3CCCCCC3)nncc2c1
·	-4.8	Clc1ccc(-c2cnc3[n+](c2)[C@H](CBr)CS3)cc1
7	4.9	COc1ccc(NC(=O)N2CCC(CN3CCCCC3)CC2)cc1OC
1	·	COC(=O)c1ccc(OC(=O)c2cc(C)sc2C)cc1
15	-3.8	Cc1c(C(=O)O)oc2ccccc12
·	0.1	CC(C)(C)c1ccc(C(=O)N2CCC(C(=O)c3ccccc3)CC2)cc1
5	-2.0	COC(=O)C1(CO)NC(c2ccccc2F)C2C(=O)N(c3ccccc3)C(=O)C21 (stereo unspecified)
8	1.5	Cc1ccc(S(=O)(=O)/C(C#N)=C/c2sccc2C)cc1
9	·	CC1CC(C)CN(C(=O)COC(=O)c2cccc(S(=O)(=O)N(C)C)c2)C1 (stereo unspecified)
·	-0.1	CCCCC#Cc1ccc(C(=O)NNC(=O)Nc2ccc(Cl)cc2)o1
·	2.2	N#CCS(=O)(=O)c1ccc2ccccc2c1
-12	1.2	Fc1cccc(Cl)c1-c1[nH]c(=S)nc2[nH]c(=S)[nH]c(=S)c12
·	0.4	N#C/C(=C\c1ccccc1[N+](=O)[O-])c1nc(-c2cc3cc(Br)ccc3oc2=O)cs1
16	-0.3	O=C(NCc1nc2ccccc2n1Cc1ccccc1)c1ccccc1
-8	·	O=C(COC(=O)c1cc(-c2ccco2)nc2ccccc12)Nc1ccc(F)c(F)c1F
·	0.3	CC1(C)CC(=O)C2=C(C1)Nc1ccccc1N(C(=O)Cc1ccc(Cl)cc1)C2c1cccnc1 (stereo unspecified)
·	-1.3	CC1=C(C(=O)OC2CCCCCC2)C(c2ccc(OCc3ccccc3)cc2)NC(=O)N1 (stereo unspecified)
·	2.9	Cn1c(-c2ncc(C(F)(F)F)cc2Cl)n[nH]c1=S
-3	·	C=CCn1c(SCC(=O)c2ccccc2)nnc1-c1ccc(OC)c(OC)c1
2	·	Nc1nonc1-n1nnc2c1CCCC2=O
·	2.6	C[C@H](O)C(=O)Nc1c(I)c(C(=O)NC(CO)CO)c(I)c(C(=O)NC(CO)CO)c1I
17	-1.2	O=C(Nc1nccs1)C1CCN(S(=O)(=O)c2ccccc2)CC1
·	-0.5	N#CCC(=O)Nc1ccc(F)c(F)c1F
·	0.4	COC(=O)c1cnc(Sc2ccc(Cl)cc2)nc1C(F)(F)F
·	-0.7	O=C(c1ccccc1)c1cccc2c1NCC2
15	1.8	Cc1nn(C(=O)c2cccnc2)c(-c2ccccc2)c1Sc1ccccc1
14	-0.9	Clc1ccc(CNc2ccc(N3CCOCC3)cc2)cc1Cl
7	·	CCN1CCN(C(=O)C2CCC(=O)N(c3cc(OC)c(OC)c(OC)c3)C2c2ccc(OC)cc2)CC1 (stereo unspecified)
·	-1.9	N=C(N)SCCN1C(=O)c2ccccc2C1=O
-7	·	O=C(NCc1ccccc1)c1cnc(N2CCOCC2)nc1
·	-1.1	COc1ccccc1C1CCN(C(=O)C2CCCCC2)CC1
7	0.2	COCC(C)NC(=O)c1ccc2c(c1)OCO2 (stereo unspecified)
7	0.6	CC1(C)CC(NCc2ccco2)CCO1 (stereo unspecified)
-11	·	COc1ccc(CNC(=O)C(C)Nc2cc(OC)c(Cl)cc2OC)cc1 (stereo unspecified)
3	·	CCN(CC(=O)Nc1ccc(OC)cc1)C1CCCCC1
5	0.8	O=C(NC1CCCCCC1)c1ccc2c(=O)n3c(nc2c1)CCCCC3
-16	·	CC1(C)CC(=O)C(C=NCCN2CCN(C(=O)NC34CC5CC(CC(C5)C3)C4)CC2)=C(O)C1
0	5.8	Cc1cccn2c(=O)c(C=Nc3ccc(Cl)cc3)c(NCCO)nc12
2	·	Cc1nccn1CCCN1C(=O)OC(C)(C)C1(C)O (stereo unspecified)
·	-0.5	O=C1/C(=C/c2cc([N+](=O)[O-])cc(Br)c2O)SC(=S)N1c1ccc([N+](=O)[O-])cc1

Next results follow.
Sa helicase inh	MgrA-DNA mod	SMILES
3	·	O=C(NC1CC1)c1ccc2cn[nH]c2c1
-15	·	CCOC(=O)CSC1=NN2CCCC(=O)N=C2S1
-13	0.3	CCc1cc(C(=O)O)n(C)n1
-4	·	Cc1cc(COc2ccc(-c3ccccc3)cc2)no1
16	·	CCOC(=O)N1CCN(C(=S)Nc2ccc(C)c(C)c2)CC1
-1	·	CC(=O)NCCC(=O)Oc1c(C)ccc(C)c1C
6	-2.5	O=C(Cc1ccccc1)Nc1ccc(Cl)c(Cl)c1
7	1.2	COc1cc(C)nc(OCCNS(=O)(=O)c2cc(C)ccc2C)n1
-23	·	CCNC(=O)c1snc(Nc2ncc(C)o2)c1N
·	-0.7	O=C1OC(c2ccccc2)=N/C1=C\c1cc(Br)cs1
4	0.5	CC(C)(C)C(=O)NCC(c1cccnc1)N1CCN(c2ccccc2)CC1 (stereo unspecified)
-6	-0.6	Cc1ccc(C)n1-c1cccc(S(=O)(=O)N2CCOCC2)c1
2	-0.5	c1ccc(N=c2oc3ccccc3cc2-c2nc3ccccc3[nH]2)cc1
7	·	O=C(c1ccc(S(=O)(=O)N2CCOCC2)cc1)N1CCn2c1nc1ccccc12
-12	0.2	O=C(COc1ccccc1)Nc1ccc(C(=O)c2ccccc2)cc1
10	-2.5	NC(=O)CSc1nnc(-c2ccco2)n1Cc1ccco1
·	-0.8	O=C1/C(=C/c2ccc(F)cc2)CC/C1=C\c1ccc(F)cc1
0	·	Cc1ccc2nc(COC(=O)/C(C#N)=C/c3cc(C)n(CC(C)C)c3C)cc(=O)n2c1
4	-2.5	COC(=O)c1c(N)sc2c1CCN(C)C2
-8	-2.0	NC(=O)COC(=O)c1ccccc1OCc1ccccc1
2	0.9	CCCN(CCC)CN1C(=S)SC2=NC(=O)CCCN21
5	·	CCOC(=O)c1ccc2ncc(C(=O)OCC)c(NCCN(C)C)c2c1
7	·	ON=C1CCCCCCCCCCC1
9	·	O=C(CSC1=Nc2ccccc2C2CC=NN12)NCc1ccco1 (stereo unspecified)
·	-2.9	O=C(O)c1nccnc1C(=O)Nc1cccc2c1CCCC2
8	·	NC(=O)c1ccc(NC(=O)COC(=O)C2CC(=O)N(Cc3ccccc3)C2)cc1 (stereo unspecified)
5	·	Cc1nc2ccccc2nc1OCC(=O)NCC(F)(F)F
14	·	CN1CCN(/N=C/c2nc(-c3ccc(Cl)cc3)n3ccccc23)CC1
3	0.3	O=C1CCC(c2ccccc2)N1C(=O)c1ccc(Cl)cc1 (stereo unspecified)
10	·	CCOc1ccc(NC(=O)CN(C)C(=O)C2CCCC2)cc1OCC

Complete entries from above.
O=C(CSc1ccccn1)NCCOc1ccccc1 as listed: Sa helicase inh = -18; MgrA-DNA mod = 7.7
Cc1ccc2nc(COC(=O)/C(C#N)=C/c3cc(C)n(CC(C)C)c3C)cc(=O)n2c1 as listed: Sa helicase inh = 0; MgrA-DNA mod = ·

The listing continues.
Sa helicase inh	MgrA-DNA mod	SMILES
6	0.4	Cc1nc2cc(-c3cccc(F)c3)nn2c(C)c1CCC(=O)Nc1ccc2c(c1)OCCO2
-12	-1.3	CC(C)c1ccccc1NC(=O)CC1(CC(=O)O)CCCC1
·	0.1	Cc1cc(/C=C2/SC(=Nc3ccccc3)NC2=O)c(C)n1-c1cccc([N+](=O)[O-])c1
·	21	CCSc1nnc2c(n1)OC(c1c(OC)ccc3ccccc13)Nc1ccccc1-2 (stereo unspecified)
-6	·	Cc1noc(C)c1CSc1ncccc1C(=O)Nc1ccccc1C(=O)NC1CCCC1
3	·	c1ccc(-c2nc3nonc3c3nc4ccccc4n23)cc1
12	-0.2	Cc1cc2ccccc2c(=O)n1CC(=O)NCC(=O)N(C)C1CCCCC1
10	-2.7	CCOCN(C(=O)Cn1c(C(C)O)nc2ccccc21)c1c(C)cccc1CC (stereo unspecified)
·	0.9	Clc1ccc(Oc2ccc3nnc(-c4ccccc4)n3n2)c(Cl)c1
8	-1.0	CCc1cc(C(=O)OC)c(NC(=O)CN2CC(C)CC(C)C2)s1 (stereo unspecified)
4	·	Cc1cc(NC(=O)CCc2ccccc2)no1
·	0.7	OC[C@H]1O[C@@H](O[C@@H]2[C@@H](CO)O[C@](O)(CO)[C@H]2O)[C@H](O)[C@@H](O)[C@H]1O
·	-1.5	CN(C)/C=C/C(=O)C(c1ccccc1)c1ccccc1
·	0.6	CSC(SC)=C(C#N)c1ccccc1
-14	·	O=C(Cc1coc2cc3c(cc12)CCC3)OC1CCCCC1=O (stereo unspecified)
-11	13	O=C(CSc1nnc(SCC(=O)N2CCCC2)s1)N1CCCC1
16	·	COC(=O)c1cnc(NCc2cccnc2)c2ccccc12

Pulled by compound from the entries so far:
Sa helicase inh	MgrA-DNA mod	SMILES
-15	·	CCOC(=O)CSC1=NN2CCCC(=O)N=C2S1
-1	·	CC(=O)NCCC(=O)Oc1c(C)ccc(C)c1C

Screening results: PubChem, ICCB-Longwood Screening Facility, Harvard Medical School
